# MbtI inh – blocks the Mycobacterium tuberculosis siderophore enzyme MbtI. P9WFX0. purified MbtI enzyme, fluorescence intensity read-out. inhibition, %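 (about 17 µg/mL by stock and volumes)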. hit rate 0.89% among 100,000. AID 493033;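 active = above 50% in both replicates, above 80% if mildly self-fluorescent; inactive = the rest, strongly fluorescent compounds included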;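 note: 0% = mean of negative and 100% = mean of positive controls; one replicate is shown; some compounds called inactive have numbers as strong as hits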
# Target sequence (P9WFX0 whole entry, looked up): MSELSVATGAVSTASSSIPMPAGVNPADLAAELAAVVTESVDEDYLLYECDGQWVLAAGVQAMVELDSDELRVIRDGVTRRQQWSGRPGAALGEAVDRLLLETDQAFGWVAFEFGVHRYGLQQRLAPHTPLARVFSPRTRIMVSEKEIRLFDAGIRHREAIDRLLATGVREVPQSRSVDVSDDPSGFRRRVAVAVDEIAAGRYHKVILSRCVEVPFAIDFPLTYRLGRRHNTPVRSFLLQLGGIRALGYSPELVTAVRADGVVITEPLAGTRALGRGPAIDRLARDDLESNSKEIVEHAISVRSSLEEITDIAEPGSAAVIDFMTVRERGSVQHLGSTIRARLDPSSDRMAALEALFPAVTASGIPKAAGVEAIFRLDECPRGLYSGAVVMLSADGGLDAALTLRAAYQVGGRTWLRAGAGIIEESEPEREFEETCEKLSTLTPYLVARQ
# PV pol inh – inhibitors of poliovirus RNA polymerase binding and polymerization; P03300; poliovirus polymerase elongation, fluorescence polarization; hits give low values; % elongation, % (compound at 16.7 µg/mL); hit rate 0.66% among 150,000; AID 588519; in the data active = % elongation below about 90%; note: some results filed as inactive read as strong as hits
# MenB inh – Mtb MenB enzyme inhibition. MenB enzyme assay, absorbance read-out; some hits fall short of the stated cut. hit rate 0.43% among 100,000. P9WNP5. inhibition, %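 (about 12 µg/mL by stock and volumes)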;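 active = mean of two replicates above 30%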;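 note: 0% = no compound and 100% = wells with inactive enzyme; the first replicate is given; strong numbers were not always called active; inactives centre near -10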
# Target sequence (P9WNP5 whole entry, looked up): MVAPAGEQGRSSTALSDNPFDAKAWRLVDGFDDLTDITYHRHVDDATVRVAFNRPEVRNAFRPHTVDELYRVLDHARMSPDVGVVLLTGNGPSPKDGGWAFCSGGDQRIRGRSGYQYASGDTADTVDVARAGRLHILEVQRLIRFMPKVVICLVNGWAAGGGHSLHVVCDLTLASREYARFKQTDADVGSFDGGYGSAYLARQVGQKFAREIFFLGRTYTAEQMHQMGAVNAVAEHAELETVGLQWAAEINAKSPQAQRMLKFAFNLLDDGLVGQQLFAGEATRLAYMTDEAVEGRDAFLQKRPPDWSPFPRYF
# PV pol inh intensity – second read-out of PV pol inh, no call of its own (marks repeat the call); % elongation; measured here: total intensity read-out; formula for this scale not given here;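 total fluorescence in place of polarization; lower means less elongation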
# * = called active by the depositor; nt = no result given.
cpd	SMILES	MbtI inh	PV pol inh intensity
1	C=CCn1c(C(Cc2ccccc2)NC(=O)c2ccccc2)nc2ccccc21 (configuration not stated)	2	103
2	CC(C)CNC(=O)C1CCN(c2ccc(S(=O)(=O)N3CCOCC3)cc2)CC1	7	104
3	CC1(C)CC(=O)C(C(C2=C(O)CC(C)(C)CC2=O)c2ccccc2)C(=O)C1 (configuration not stated)	nt	93
4	CCC1CN(C(=O)NCc2ccccc2)c2ccccc2S1 (configuration not stated)	-15	100
5	c1ccc(-c2cc(N3CCCC3)nc3cc4c(cc23)OCCO4)cc1	10	nt
6	CC(=O)O[C@H]1C[C@@H]2CC[C@@H]3[C@H](CC[C@@]4(C)[C@H]3C[C@H]([N+]3(C)CCCCC3)[C@@H]4OC(C)=O)[C@@]2(C)C[C@@H]1[N+]1(C)CCCCC1	-8	101
7	CCOC(=O)c1c(-c2ccco2)csc1NC(=O)COC(=O)Cn1[nH]c(=O)c2ccccc2c1=O	11	103
8	Cc1cc(NC(=O)c2ccc(CN3CCN(Cc4ccccn4)CC3)cc2)ccc1Cl	1	108

cpd	PV pol inh	MenB inh
1	100	-1
2	102	-34
3	95	-3
4	101	-6
5	nt	2
6	101	-9
7	96	-10
8	105	5

# Next compounds follow.
cpd	SMILES	MbtI inh	PV pol inh intensity
9	CCOc1ccccc1C(=O)N(CN1CCCC1=O)c1ccccc1	-1	104
10	CCc1ccc(NC(=O)C2c3ccccc3C(=O)N(CCOC)C2c2c[nH]c3ccccc23)cc1 (configuration not stated)	-12	98
11	O=C(c1ccc2c(c1)OCCO2)N(c1ccccn1)C1CCCCC1	6	94
12	CC(C)c1ccc(C(=O)OCC(=O)NCc2ccc(Cl)cc2)cc1	-3	107
13	COc1cc(OC)cc(C(=O)NCC(=O)OCC2COc3ccccc3O2)c1 (configuration not stated)	0	100
14	O=C(OC1Cn2c(=O)ccc(=O)n2C1)c1ccccc1Cl	-4	98
15	COc1cc(S(=O)(=O)N2CCNCC2)ccc1-n1cnnn1	0	102
16	CC(c1ccccc1)N1CCC(CNC(=O)Nc2ccc(Cl)cc2)C1 (configuration not stated)	-2	102

cpd	PV pol inh	MenB inh
9	102	-5
10	100	-13
11	98	-15
12	101	nt
13	106	-19
14	97	-11
15	100	6
16	98	-1

# More records follow.
cpd	SMILES	MbtI inh	PV pol inh intensity
17	Cc1[nH]n(-c2ccccc2)c(=O)c1Cc1c(Cl)cccc1Cl	51	108
18	CCC(SC1=NCCS1)C(=O)Nc1ccccc1OC (configuration not stated)	0	104
19	Cc1ccc(Sc2c(CS(=O)(=O)c3ccccc3)[nH]c3ccccc23)cc1	4	99
20	CC1=NC(=O)/C(=C\c2ccc(Cl)cc2)N(C)N1c1ccccc1	6	101
21	CCOC(=O)C1=C(C)N(C2CCCCC2)C(=O)C1	-4	101
22	Cc1nc2cc(CCl)ccc2s1	24	104
23	Cc1cc(/C=C2/NC(=O)N(Cc3ccc(Br)cc3)C2=O)c(C)n1-c1ccc2c(c1)OCO2	-13	105
24	O=C(CSc1n[nH]c(=O)[nH]c1=O)Nc1ccc(SC(F)F)cc1	17	103

cpd	PV pol inh	MenB inh
17	103	0
18	101	-9
19	104	-9
20	101	3
21	101	-10
22	102	nt
23	104	-9
24	103	13

# Reformatted as labelled records: entries from further up
[20] CC1=NC(=O)/C(=C\c2ccc(Cl)cc2)N(C)N1c1ccccc1
  MbtI inh: 6	PV pol inh intensity: 101	PV pol inh: 101	MenB inh: 3

[18] CCC(SC1=NCCS1)C(=O)Nc1ccccc1OC (configuration not stated)
  MbtI inh: 0	PV pol inh intensity: 104	PV pol inh: 101	MenB inh: -9

[19] Cc1ccc(Sc2c(CS(=O)(=O)c3ccccc3)[nH]c3ccccc23)cc1
  MbtI inh: 4	PV pol inh intensity: 99	PV pol inh: 104	MenB inh: -9

# (cont.)
cpd	SMILES	MbtI inh	PV pol inh intensity
25	CC(c1ccccc1)n1nnc2ccccc21 (configuration not stated)	4	103
26	S=c1[nH]nc(C2CC2)o1	26	95
27	CNC(=O)CS(=O)(=O)c1cn(CC(=O)N2CCCC2)c2ccccc12	4	105
28	COc1ccc(C(=O)CN2CCN(C(=O)CC(C)C)CC2)cc1	-11	101
29	CCN(C(=O)c1cccc(OC)c1)C1CCS(=O)(=O)C1 (configuration not stated)	-6	107
30	COc1ccc2c(c1)c(-c1csc(N)n1)c(C)n2C	nt	103
31	CCCN1C(=O)c2cc(C(=O)NCc3cccs3)ccc2C1O (configuration not stated)	-3	107
32	CCOC(=O)c1c(CN2CCN(c3ccccc3)CC2)oc2cc(Br)c(OC(C)=O)cc12	4	101

cpd	PV pol inh	MenB inh
25	100	-18
26	102	-50
27	103	13
28	100	2
29	100	5
30	103	21
31	102	-11
32	100	-1

# Other structures follow:
cpd	SMILES	MbtI inh	PV pol inh intensity
33	N/C(CN1CCCCC1)=N\O	-7	94
34	CCN1OCN(c2nc(N(C)C)nc(N(C)C)n2)C1=N	-10	102
35	Cc1cc(C)nc(Nc2n[nH]c(-c3cccnc3)n2)n1	1	101
36	O=C(CC(C(=O)O)N1CCN(c2cccc(Cl)c2)CC1)c1ccc(C2CCCCC2)cc1 (configuration not stated)	nt	107
37	COC(=O)c1ccc(CSc2nnc3c4ccccc4n(C)c3n2)cc1	nt	95
38	Cc1cnc(NC(=O)CSCc2nc3scc(-c4cccs4)c3c(=O)[nH]2)s1	39	110
39	Cc1nnc(SC(C)C(=O)Nc2ccc(Cl)cn2)s1 (configuration not stated)	-7	nt
40	Cc1nnc(Nc2ccc(N3CCCCC3)cc2)[nH]c1=O	-5	101

cpd	PV pol inh	MenB inh
33	103	-78
34	103	1
35	102	-15
36	110	-4
37	101	-17
38	108	-23
39	nt	4
40	98	-1

# Continuation.
cpd	SMILES	MbtI inh	PV pol inh intensity
41	C#CCSc1nc2ccccc2[nH]1	15	101
42	O=C(OCC(=O)N1CCCC1)c1cn(-c2ccccc2)nc1-c1ccccc1	-2	101
43	CC1(C)OC(c2ccccc2)=C/C(=C/C=C(C#N)C#N)O1	4	113
44	CCN1C(=O)C(Cc2nc3ccccc3c(=O)[nH]2)c2ccccc21 (configuration not stated)	-7	103
45	CCOC(=O)c1sc(N)c(C#N)c1CSc1nc2ccc(OCC)cc2[nH]1	0	138
46	COc1ccc(CN2CCCN(S(=O)(=O)c3ccc(Br)cc3)CC2)cc1	16	102
47	Oc1ccc(-c2nc(-c3cccs3)c(-c3cccs3)[nH]2)cc1	103	101
48	N#Cc1ccc(NC(=O)c2cc3cc4c5c(c3oc2=N)CCCN5CCC4)cc1	2	194

cpd	PV pol inh	MenB inh
41	102	-5
42	103	nt
43	119	-34
44	102	21
45	125	1
46	99	-10
47	102	3
48	72	-7

# Next section
cpd	SMILES	MbtI inh	PV pol inh intensity
49	Cc1c(Cl)cccc1NC1=CC(=O)CCC1	31	103
50	CCCn1cnc2cc(NCc3ccncc3)ccc21	-6	107
51	COC(=O)c1ccc(Oc2c(F)c(F)nc(F)c2F)cc1	-6	103
52	O=C(OC1OCCOC1OC(=O)C1CCCCC1)C1CCCCC1 (configuration not stated)	-12	102
53	COC(=O)c1c(C)[nH]c(C)c1/C=N/OC(=O)c1ccco1	-12	105
54	Cc1cc(C)n(-c2nncc(-c3ccccc3)n2)n1	7	102
55	O=c1cc(N2CCCCC2)nc2n1CCCS2	-8	107
56	N#CCN(CC#N)C(=O)N1CCOCC1	-3	103

cpd	PV pol inh	MenB inh
49	99	-32
50	103	0
51	104	-10
52	101	34
53	101	-22
54	102	-6
55	105	1
56	100	2

# Continuation.
cpd	SMILES	MbtI inh	PV pol inh intensity
57	CCN(C(=O)CSc1nc2ccccc2o1)c1ccccc1	-11	102
58	O=C(Cn1cnc2sc3c(c2c1=O)CCCC3)NCc1ccccc1	nt	111
59	CN(C)C(=O)CSc1nnc(-c2cccnc2)n1-c1ccccc1	-5	103
60	O=C(c1ccc2ncsc2c1)N1CCCC1c1cccs1 (configuration not stated)	-1	107
61	CCOC(=O)c1nn(-c2ccc(Cl)cc2Cl)c(=N)c(C#N)c1C	11	194
62	CCCN1CCN(Cc2ccc(OCC(=O)Nc3ccc(Br)cc3)c(OC)c2)CC1	-12	88
63	O=C(O)c1ccccc1S(=O)(=O)N1CCCCC1	-8	106
64	N#CCC(=O)NCc1ccncc1	4	104

cpd	PV pol inh	MenB inh
57	102	nt
58	102	-4
59	99	-2
60	103	11
61	70	-5
62	94	6
63	101	-28
64	101	14

# The list goes on.
cpd	SMILES	MbtI inh	PV pol inh intensity
65	O=S1(=O)C=C(SCCN2CCOCC2)c2ccccc21	-2	102
66	O=C(CSc1nnc(C2CC2)n1Cc1ccco1)c1cccc(Cl)c1	34	94
67	Cc1ccccc1NC(=O)C(C)N(c1ccccc1)S(C)(=O)=O (configuration not stated)	7	100
68	O=C(COCc1cc(-c2ccco2)on1)N1CCc2ccccc2C1	-3	106
69	O=C(NCc1cccnc1)c1cccn2c(=O)c3ccc(Cl)cc3nc12	-19	104
70	N#CCSc1nc2c(n1-c1ccccc1)CCCC2	11	158
71	COc1ccc(N/C=C(\C#N)C(N)=S)cc1	50	100
72	CN(C)C=NC(=S)c1sccc1CSc1ccc(Cl)cc1	74*	111

cpd	PV pol inh	MenB inh
65	102	-7
66	99	-11
67	101	-5
68	100	-9
69	101	-9
70	123	-18
71	100	-163
72	106	-26

# (more compounds)
cpd	SMILES	MbtI inh	PV pol inh intensity
73	COC(=O)c1[nH]c(=O)c2ccccc2c1OCc1ccccc1	-9	103
74	Cc1onc(-c2c(Cl)cccc2Cl)c1C(=O)n1c(C)nc2ccccc21	5	103
75	CC1CCCCC1NC(=O)Cn1ccc2ccccc21 (configuration not stated)	-14	108
76	CC(C)CCn1c(=O)c2ccccc2n2c(CN(C)CCOc3ccc(Cl)cc3)nnc12	2	104
77	Cn1c2ccccc2c2cc(CC(N)=O)ccc21	-308	102
78	CC(C)c1nn(-c2ccc(C(F)(F)F)cn2)c(=O)o1	8	102
79	NC(N)=NCc1cccnc1	0	104
80	COc1ccc(-c2cc(C(F)(F)F)nc(SCC(=O)NN3CCN(C)CC3)n2)cc1	63	103

cpd	PV pol inh	MenB inh
73	100	15
74	101	21
75	104	3
76	97	14
77	100	-9
78	99	-22
79	100	-14
80	104	-3

# Structures from the list above containing a cyano group:
cpd	SMILES	MbtI inh	PV pol inh intensity
43	CC1(C)OC(c2ccccc2)=C/C(=C/C=C(C#N)C#N)O1	4	113
45	CCOC(=O)c1sc(N)c(C#N)c1CSc1nc2ccc(OCC)cc2[nH]1	0	138
48	N#Cc1ccc(NC(=O)c2cc3cc4c5c(c3oc2=N)CCCN5CCC4)cc1	2	194
56	N#CCN(CC#N)C(=O)N1CCOCC1	-3	103
61	CCOC(=O)c1nn(-c2ccc(Cl)cc2Cl)c(=N)c(C#N)c1C	11	194
64	N#CCC(=O)NCc1ccncc1	4	104
70	N#CCSc1nc2c(n1-c1ccccc1)CCCC2	11	158
71	COc1ccc(N/C=C(\C#N)C(N)=S)cc1	50	100

cpd	PV pol inh	MenB inh
43	119	-34
45	125	1
48	72	-7
56	100	2
61	70	-5
64	101	14
70	123	-18
71	100	-163

# New compounds follow
cpd	SMILES	MbtI inh	PV pol inh intensity
81	CC(C)(O)C#Cc1ccc(C(=O)NCCC(=O)O)s1	13	100
82	Oc1ccc(COCc2ccccc2)c2cccnc12	nt	165
83	CCOC(=O)C1=C(C)Nc2c(C(=O)Nc3ccc(OCC)cc3)cnn2C1c1cc(OC)ccc1OC (configuration not stated)	-5	102
84	O=C(N/N=C/c1ccncc1)C1CC1C(=O)N/N=C/c1ccncc1 (configuration not stated)	13	102
85	COc1ccc(CCN(C)C(=O)COc2nncc3ccccc23)cc1OC	8	98
86	CN(C)S(=O)(=O)c1ccc(C(=O)Nc2c(C#N)oc3ccccc23)cc1	136	105
87	COc1ccc(CN(Cc2cccnc2)C(=S)NCc2ccco2)cc1OC	33	104
88	Nc1ccc(C(=O)N/N=C/c2cccn2-c2ccc(S(N)(=O)=O)cc2)cc1	-14	101

cpd	PV pol inh	MenB inh
81	99	-24
82	150	-41
83	101	1
84	103	-40
85	101	-10
86	104	-33
87	102	-53
88	103	6

# Retrieved by structure from the list above, 5 records:
cpd	SMILES	MbtI inh	PV pol inh intensity
88	Nc1ccc(C(=O)N/N=C/c2cccn2-c2ccc(S(N)(=O)=O)cc2)cc1	-14	101
82	Oc1ccc(COCc2ccccc2)c2cccnc12	nt	165
85	COc1ccc(CCN(C)C(=O)COc2nncc3ccccc23)cc1OC	8	98
86	CN(C)S(=O)(=O)c1ccc(C(=O)Nc2c(C#N)oc3ccccc23)cc1	136	105
84	O=C(N/N=C/c1ccncc1)C1CC1C(=O)N/N=C/c1ccncc1 (configuration not stated)	13	102

cpd	PV pol inh	MenB inh
88	103	6
82	150	-41
85	101	-10
86	104	-33
84	103	-40

# Further entries:
cpd	SMILES	MbtI inh	PV pol inh intensity
89	CCn1nnc2cc(C(=O)NC3CCCc4ccccc43)ccc21 (configuration not stated)	-6	107
90	COc1cc2nc(=S)n3c(c2cc1OC)NC(CCC(=O)NCCN1CCN(c2cccc(Cl)c2)CC1)C3=O (configuration not stated)	4	103
91	CN1C(=O)/C(=C\C2(C)N3CC4(C)CN2CC(C)(C3)C4=O)c2ccccc21 (configuration not stated)	-1	104
92	CC1CC(CC(C)C(=O)NC(=S)Nc2nncs2)C(=O)O1 (configuration not stated)	-10	100
93	O=C1NC(=O)C2(COC(c3cccnc3)OC2)S1 (configuration not stated)	0	103
94	CN(C(=O)/C=C/c1ccc(Br)o1)c1ccccc1	5	98

cpd	PV pol inh	MenB inh
89	106	5
90	102	-29
91	102	-40
92	103	-13
93	103	-19
94	102	nt

# Assay outcomes (PubChem BioAssay)
